Arbovirus anti: arbovirus infection inhibition. inhibition, % at 10 µM. arbovirus infection cell-based antiviral screen. 200,000 tested, 0.37% active;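 active = inhibition from about 30%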;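 note: bluetongue infection of BSR cells; cell survival read as ATP light after 72 h; 0% = infected wells without compound and 100% = uninfected wells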
YopH PTP inh: YopH (Yersinia) phosphatase inhibition | fluorescence Ex485/Em525 | 140,000 tested, 0.16% active | inhibition, %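 (about 10 µM by stock and volumes)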;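 active = inhibition of 50% or more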;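 note: controls were vehicle for no effect and minimum signal wells for full effect; inactives centre near -20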
RecA intein inh: inhibitors of M. tuberculosis RecA intein splicing; P9WHJ3; cell-free RecA intein splicing, fluorescence; inhibition, %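 (about 9 µM by stock and volumes)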; 290,000 tested, 0.75% active; AID 2221; in the data active = inhibition above about 30%; inconclusive = no clear call, values can overlap the other calls;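 note: 0% = vehicle wells and 100% = reference inhibitor control wells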
Target sequence (P9WHJ3 whole entry, looked up): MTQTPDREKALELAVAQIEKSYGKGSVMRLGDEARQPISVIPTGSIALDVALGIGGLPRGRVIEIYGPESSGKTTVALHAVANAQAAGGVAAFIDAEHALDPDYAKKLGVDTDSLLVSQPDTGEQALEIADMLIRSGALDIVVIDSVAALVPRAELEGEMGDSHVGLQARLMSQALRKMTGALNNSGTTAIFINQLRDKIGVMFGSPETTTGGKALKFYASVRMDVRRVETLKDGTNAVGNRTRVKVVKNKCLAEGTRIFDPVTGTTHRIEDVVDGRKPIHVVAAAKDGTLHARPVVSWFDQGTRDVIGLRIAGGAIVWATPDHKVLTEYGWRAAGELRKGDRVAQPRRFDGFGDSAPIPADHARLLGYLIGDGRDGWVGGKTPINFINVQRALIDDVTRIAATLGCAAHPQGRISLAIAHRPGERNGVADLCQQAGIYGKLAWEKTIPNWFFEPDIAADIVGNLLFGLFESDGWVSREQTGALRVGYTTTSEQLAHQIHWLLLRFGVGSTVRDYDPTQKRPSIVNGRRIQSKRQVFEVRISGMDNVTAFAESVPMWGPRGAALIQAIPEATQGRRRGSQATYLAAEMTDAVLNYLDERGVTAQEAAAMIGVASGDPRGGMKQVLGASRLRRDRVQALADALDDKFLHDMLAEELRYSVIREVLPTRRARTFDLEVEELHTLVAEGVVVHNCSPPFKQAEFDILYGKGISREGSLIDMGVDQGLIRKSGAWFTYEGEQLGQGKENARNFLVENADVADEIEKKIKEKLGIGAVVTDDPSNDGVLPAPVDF
Mtb growth: M. tuberculosis H37Rv growth inhibitors, H37Rv strain (AID 1626). M. tuberculosis H37Rv growth inhibition; higher % means a stronger effect. inhibition, % at 10 µM, or IC50 in µM where a hit was titrated. 220,000 tested, 0.95% active;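 active = confirmed in a dose series; inconclusive = inhibition above 80% but not taken into the dose series; inactive = below 80% or under 30% at every dose of the series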;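 note: bacteria incubated seven days before Alamar blue readout; 0% = bacteria only wells and 100% = bacteria with antibiotic wells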
Mtb bLac sens: beta-lactam sensitization of Mtb H37Rv | M. tuberculosis H37Rv growth with meropenem, percent inhibition; hits of this screen are not shown here | inhibition, % at 25 µM | 330,000 tested, 0.27% active | AID 434955;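 active = about 74% or more and at least 40 points above the plate without the antibiotic, then above 30% in a dose series; inconclusive = first-round hits that could not be retested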;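 note: growth measured after seven days incubation then overnight dye step; 0% = bacteria only wells and 100% = bacteria with antibiotic; twin plates without the antibiotic show which effects depend on it; some results filed as inactive read as strong as hits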
Arbovirus anti repeat: recorded beside Arbovirus anti, whose call it bears; inhibition, %; measured here: 10K subset replicate screen; many hits read low in the repeat;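 first of two repeat runs on a subset; 0% = infected and 100% = uninfected wells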
* marks the source's active call; other numbers are inactive results; u = inconclusive; x = no result given. A portion of the library. The share of hits here may be higher or lower than overall.

SMILES	Arbovirus anti	YopH PTP inh	RecA intein inh	Mtb growth	Mtb bLac sens	others
Cc1cc(C)c2c(ccc3cccc[n+]32)c1	x	x	-2.7	x	-5.9
CNC(=O)CN1C(=O)NC2(CCc3ccccc32)C1=O (centres undefined)	9.2	-2.9	-8.0	15.1%	5.8
COc1ccccc1N1CCN(C(CNS(=O)(=O)c2ccccc2)c2ccccc2)CC1 (centres undefined)	x	x	4.4	x	-2.5
Cc1ccc(NC(=O)COc2ccc3c(c2)CCC3)nc1	x	x	4.8	x	10.4
O=C(N/N=C/c1ccc(OC(=O)c2ccccc2)cc1)c1cccc(O)c1	-9.8	x	-1.1	3.4%	-3.4
CCCOP(=O)(c1ccc(N(C)C)cc1)C(O)c1c(Cl)cccc1Cl (centres undefined)	x	x	0.0	x	u
COc1cc(CO)ccc1OCC(=O)Nc1ccc(Br)cc1	-21.3	x	-2.3	10.1%	-4.1
CC1CC(C)CN(c2cc(=O)n(Cc3ccc(F)cc3)c(=O)[nH]2)C1 (centres undefined)	1.3	-38.2	2.4	-3.0%	-3.1
O=C(O)CCc1ccc(-c2ccc(Cl)cc2)n1NC(=O)c1ccc(O)cc1	-1.4	x	2.3	-5.0%	-1.7
CCCOc1ccc(C2NC(=O)CCC2[N+](=O)[O-])cc1 (centres undefined)	x	x	1.1	x	-15.3
COc1ccc(N2CCN(CC(=O)Nc3ccccc3SC)CC2)cc1	-0.7	x	-0.1	2.8%	-4.7
COc1cc(N2CCCC2)c(OC)cc1/C=c1/sc2nc3ccccc3n2c1=O	4.8	-16.4	x	x	x
Cc1ccc2sc(N(CCCN(C)C)C(=O)c3ccc(S(=O)(=O)N(C)Cc4ccccc4)cc3)nc2c1C	x	x	15.3	x	99.5
O=C(CN1CCCCCCC1)N/N=C/c1ccc(F)c(F)c1	7.8	-4.7	1.7	6.4%	-2.2
CN(C)c1ccnc(NCc2ccccc2)c1C#N	-6.8	-24.6	-1.2	0.2%	0.5
COc1ccc(CN2CCC(C(=O)c3ccc(Cl)cc3)CC2)cc1	x	x	1.1	x	-4.0
CC(=O)c1cn(-c2ccc(Cl)cc2)c(=O)[nH]c1=O	x	x	-0.7	x	8.5
O=C(Nc1nnc(COc2ccc(Cl)cc2)s1)C1CCCO1 (centres undefined)	12.3	-0.8	-1.6	x	-0.6
COC(=O)C1=C(c2ccccc2)C[C@@H]2CC[C@H]1N2C(=O)NCCO	x	x	2.5	2.0%	0.1
Cn1c(=O)c(C(=O)NCCc2ccc(Cl)cc2)c(O)c2ccccc21	x	x	0.7	x	-6.7
O=[N+]([O-])c1ccc(Cl)c(/C=N/NC(=S)Nc2ccccc2)c1	3.9	-29.1	-2.1	-4.1%	-5.2
CCCOc1cccc(C(=O)Nc2cccc3ncccc23)c1	x	x	0.3	x	1.7
Cc1ccc(NC(=S)N(C)C)cc1C	x	x	-0.8	-1.5%	2.9
O=C(CCN1C(=O)c2ccccc2C1=O)Nc1ccc(F)cc1	13.8	-110.9	1.6	-14.8%	-4.2	Arbovirus anti repeat=3.8
O=S(Cc1ccc(Cl)cc1)CC(O)(c1ccccc1)c1ccccc1 (centres undefined)	7.9	-25.4	-1.0	4.8%	4.2
O=C(Nc1ccc(Cl)cc1)N1CC2CC(C1)c1cccc(=O)n1C2 (centres undefined)	x	x	-0.5	x	2.7
Cc1ccc(S(=O)(=O)N(C)CC(=O)N2CCN(Cc3ccc4c(c3)OCO4)CC2)cc1	x	x	-1.6	x	0.8
COC(=O)Nc1sc2c(c1C(=O)NCc1ccco1)CCCC2	-0.7	-18.8	-0.1	7.9%	x
CC(C)NC(=O)C1CCN(C2CCN(C(=O)C3=CCCC3)CC2)CC1	4.7	x	0.2	0.5%	-1.3
Cc1ccc(N2C(=O)N(CC(=O)N3CCCc4ccccc43)C(=O)C2C)cc1 (centres undefined)	3.3	-162.7	0.1	-16.8%	-6.5
CCOc1ccc(NC(=O)Nc2nc3ccc(S(C)(=O)=O)cc3s2)cc1	x	x	-0.2	x	-0.1
Cn1c(Cl)c(/C=N/OC(=O)C(C)(C)C)c2ccccc21	1.5	x	-7.2	66.6%	38.3
O=C(c1cccs1)N1CCCC(N2CCN(c3ccc(F)cc3)CC2)C1 (centres undefined)	x	x	1.1	x	4.8
O=C(Nc1ccnn1C1CCN(Cc2ccccc2F)CC1)C1CCCC1	x	x	1.2	x	-10.9
CC(C(=O)Nc1ccccc1)c1ccc(-c2ccccc2)c(F)c1 (centres undefined)	-20.1	-0.2	-0.9	3.2%	0.5
O=C(N/N=C1\CCc2ccccc21)c1ccc(O)cc1	-7.4	x	1.0	-4.4%	-0.4
Cc1ccc(C(=O)Nc2cc(=O)n(C)c(=O)n2C)cc1C	3.6	-41.7	2.5	7.0%	1.9
CC(C)(C)n1nnnc1CN1CCN(C2CCCC2)CC1	7.3	14.2	4.8	-5.6%	-8.7
CC(NC(=O)NCCCn1ccnc1)(C(F)(F)F)C(F)(F)F	-1.4	-50.2	-1.6	-6.9%	-0.8
Cn1c(C(=O)N2CCN(Cc3ccc4c(c3)OCO4)CC2)cc2c(=O)n(C)c3ccccc3c21	-11.9	-19.9	3.3	6.5%	-4.5	Arbovirus anti repeat=-13.1
CN(Cc1nc(Cc2cccc(F)c2)no1)CC1COCCO1 (centres undefined)	3.4	x	-0.2	-6.8%	-4.1
CCC(=O)n1nc(-c2ccco2)nc1SCc1ccccc1	6.0	-21.0	2.9	-12.2%	-2.0
NC(=O)CN1C(=O)C(=O)N(Cc2cccc(C(F)(F)F)c2)C1=O	x	x	0.0	x	0.0
COC(=O)c1ccccc1N=C(SC)N(C)C	6.4	-21.5	2.1	-3.9%	4.8
COc1ccccc1CNC(=O)COC(=O)Cn1cnc2ccccc21	2.9	x	-1.8	0.8%	0.4
CCn1c(SCC(=O)NCc2ccco2)nnc1-c1c[nH]c2ccccc12	2.3	-30.8	-0.2	-4.1%	x
CCCCSc1nc2ccccc2[nH]1	-3.9	x	6.2	-1.3%	1.9
CCOC(=O)N1C(=O)C2(CCCCC2)N(c2ccccc2Cl)C1=S	4.8	-22.6	-2.6	6.0%	-1.6
COC(=O)C(C(C)=O)C1=C/C(=N\S(=O)(=O)c2ccc(C)cc2)c2ccccc2C1=O (centres undefined)	-5.3	-9.8	17.5	-5.5%	0.2
CCCN1C(=O)c2ccc(C(=O)Nc3nccs3)cc2C1=O	1.8	-6.6	0.0	-7.7%	13.0

Part of the list above in order of molar mass, lowest first.
SMILES	Arbovirus anti	YopH PTP inh	RecA intein inh	Mtb growth	Mtb bLac sens	others
CN(Cc1nc(Cc2cccc(F)c2)no1)CC1COCCO1 (centres undefined)	3.4	x	-0.2	-6.8%	-4.1
NC(=O)CN1C(=O)C(=O)N(Cc2cccc(C(F)(F)F)c2)C1=O	x	x	0.0	x	0.0
CCn1c(SCC(=O)NCc2ccco2)nnc1-c1c[nH]c2ccccc12	2.3	-30.8	-0.2	-4.1%	x

The list goes on:
SMILES	Arbovirus anti	YopH PTP inh	RecA intein inh	Mtb growth	Mtb bLac sens	others
O=C(CSc1nnnn1-c1ccc(C(=O)O)cc1)NC1CCCCC1	x	x	-0.4	x	-3.5
CC1CCCCC1NC(=O)CN(C)S(=O)(=O)c1ccc2c(c1)CCC(=O)N2 (centres undefined)	x	x	-2.6	x	9.8
S=C(Nc1ccccc1)NC1CCN(Cc2ccccc2)CC1	7.3	x	-0.2	-8.9%	-7.8
CSC1=N/C(=C\c2ccc(C)s2)C(=O)S1	-4.2	-23.4	-3.1	-6.9%	3.6
O=C(NCCN1CCCCC1)c1cc2ccccc2[nH]1	2.9	-17.5	1.3	5.3%	-24.8
COc1ccc(C(=O)CSc2n[nH]c(-c3ccco3)n2)cc1	10.9	6.8	1.2	0.6%	6.3
Cc1ccc2c(c1)/C(=N/OC(=O)c1ccc(F)cc1)CCS2	1.4	-23.6	-7.1	10.3%	5.9
CCN(CC)C(=S)SCC(=O)Nc1ncc2c(n1)CC(C)(C)CC2=O	x	x	x	1.6%	-4.0
COC(=O)/C=C/c1ccc2c(c1)S(=O)(=O)N(c1cccc(OC)c1)[C@H]2CC(=O)OC	x	x	1.9	34.5%	1.9
CCCCN(CC)CCCNC(=O)Cn1nc(Cc2ccncc2)c2ccccc2c1=O	-1.9	-16.8	-0.5	-6.7%	43.4
COc1ccc(CCNc2nc3ccc(C)cc3n3cnnc23)cc1OC	x	x	0.0	x	8.7
CCOP(=O)(OCC)C(NC(=O)NS(=O)(=O)c1ccc(C)cc1)c1ccccc1 (centres undefined)	x	x	-2.5	x	-0.6
Cc1ccc2nsnc2c1S(=O)(=O)NCCc1c(C)[nH]c2ccc(F)cc12	-9.1	-9.2	-1.2	12.2%	-4.7
NS(=O)(=O)c1ccc(NC(=S)NC(=O)c2ccc(Br)o2)cc1	-7.0	x	-2.7	1.1%	4.0
C/C(=N\NC(=O)c1nnn(-c2nonc2N)c1-c1cccs1)c1ccc(O)cc1	x	x	1.0	x	41.2
Cc1nc(Nc2nc3ccccc3o2)nc2c1CCC2	-5.5	2.1	0.0	-1.8%	9.6	Arbovirus anti repeat=-6.2
CCOc1cc(/C=N\NC(=O)C2C(=O)NCC2c2ccccc2)ccc1OC (centres undefined)	5.2	-29.0	-1.8	-8.6%	0.0
COc1ccc(-c2nnc(SCC(=O)NCc3cccs3)n2C(C)C)cc1	16.0	-11.9	1.2	0.8%	1.9
CC(=O)c1cccc(NC(=O)NNC(=O)c2ccc(-c3ccccc3)cc2)c1	x	x	-1.6	x	-9.3
CSc1nc(SCCN(C)C)c2c3c(sc2n1)COC(C)(C)C3	x	x	2.5	-2.2%	-5.4
O=C(c1ccccc1)N1N=C(c2ccccc2O)CC1c1ccccc1 (centres undefined)	x	x	-0.9	x	2.7
Cc1oc(-c2ccc(Cl)cc2)nc1CN1CCCC(C(=O)NCCCN2CCOCC2)C1 (centres undefined)	-3.3	-39.2	3.4	x	13.1
CCOC(=O)c1ccc(NC(=O)Cn2nnc(-c3ccc(C)cc3)n2)cc1	-9.4	-7.2	-1.2	60.9%	-5.2
CCCc1c(C(=O)N/N=C(/C)c2ccncc2)nnn1-c1nonc1N	x	x	-0.4	x	u
CCN(CC)Cc1c(C(=O)N/N=C/c2ccccn2)nnn1-c1nonc1N	x	x	1.1	x	9.9
O=C(C1CC(=O)N(c2ccc(Cl)cc2)C1)N1CCCCCC1 (centres undefined)	x	x	1.2	x	-0.5
COC(=O)c1[nH]c2cccc(C)c2c1NC(=O)CN1CCN(C(=O)c2ccco2)CC1	1.8	3.8	0.9	4.7%	-1.2
CCOC(=O)Cn1cnc2c(nnn2-c2ccccc2)c1=O	x	x	-4.0	x	-11.1

Grouped by structure, the entries above with fluorine
SMILES	Arbovirus anti	YopH PTP inh	RecA intein inh	Mtb growth	Mtb bLac sens	others
CC1CC(C)CN(c2cc(=O)n(Cc3ccc(F)cc3)c(=O)[nH]2)C1 (centres undefined)	1.3	-38.2	2.4	-3.0%	-3.1
O=C(CN1CCCCCCC1)N/N=C/c1ccc(F)c(F)c1	7.8	-4.7	1.7	6.4%	-2.2
O=C(CCN1C(=O)c2ccccc2C1=O)Nc1ccc(F)cc1	13.8	-110.9	1.6	-14.8%	-4.2	Arbovirus anti repeat=3.8
O=C(c1cccs1)N1CCCC(N2CCN(c3ccc(F)cc3)CC2)C1 (centres undefined)	x	x	1.1	x	4.8
O=C(Nc1ccnn1C1CCN(Cc2ccccc2F)CC1)C1CCCC1	x	x	1.2	x	-10.9
CC(C(=O)Nc1ccccc1)c1ccc(-c2ccccc2)c(F)c1 (centres undefined)	-20.1	-0.2	-0.9	3.2%	0.5
CC(NC(=O)NCCCn1ccnc1)(C(F)(F)F)C(F)(F)F	-1.4	-50.2	-1.6	-6.9%	-0.8
CN(Cc1nc(Cc2cccc(F)c2)no1)CC1COCCO1 (centres undefined)	3.4	x	-0.2	-6.8%	-4.1
NC(=O)CN1C(=O)C(=O)N(Cc2cccc(C(F)(F)F)c2)C1=O	x	x	0.0	x	0.0
Cc1ccc2c(c1)/C(=N/OC(=O)c1ccc(F)cc1)CCS2	1.4	-23.6	-7.1	10.3%	5.9
Cc1ccc2nsnc2c1S(=O)(=O)NCCc1c(C)[nH]c2ccc(F)cc12	-9.1	-9.2	-1.2	12.2%	-4.7

From PubChem BioAssay
